# High-throughput results as filed in PubChem BioAssay.
# RE007 growth inh = less growth of the S. pombe RE007 Vpr strain; S. pombe RE007 Vpr strain, BacTiter-Glo ATP luminescence, 24 h; control for the full effect not named in the record; Potency, µM (series often up to 92.2 µM), without a hit: top-dose activity change, negative = less growth; 0.21% of 360,000 active; active = well fitted falling curve with a large enough effect; inconclusive = small, poorly fitted or top-dose-only effect; inactive = no such curve, though single readings can be large or run the other way;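 note: nearly all actives have a fitted effect of over 50% in size; the assay follows cell death caused by Vpr and the record does not say whether a fall means rescue or toxicity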
#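 Fission yeast RE007 carrying one integrated HIV-1 vpr copy, seeded at OD 0.01 in PMG+AL medium with 23 nL pinned compound. Grown 24 h at 30 degrees; viability read by BacTiter-Glo luminescence after 5 min.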
# StopGo reporter = FMDV 2A StopGo reporter, luciferase signal; human cells with a luciferase reporter of 2A StopGo recoding; control for the full effect not named in the record; 1.2% of 410,000 active; Potency, µM (highest dose often 57.9 µM), inactives show at the top dose signal change, negative = less light; AID 1159524; active = well fitted falling curve with a large enough effect; inconclusive = small, poorly fitted or top-dose-only effect; inactive = no such curve, though single readings can be large or run the other way; tested in HEK293T cells; note: nearly all actives have a fitted effect of over 45% in size; luciferase light after 4 h
# An asterisk follows results filed as active; ? = inconclusive; [ ] = another dose, or the depositor's remark. % is set by controls: 0 for no effect and ±100 for the full control effect; potency is the fitted concentration of half-maximal effect.
# Sequence of screens – RE007 growth inh | StopGo reporter
NS(=O)(=O)c1ccc(CCNC(=O)c2cccc(S(=O)(=O)N3CCc4ccccc43)c2)cc1
 : 2% | ?
CCCCn1c(N)c(N(C)C(=O)CCCn2c(=O)oc3ccccc32)c(=O)[nH]c1=O
 : -13% | 0%
O=C(NCc1cccc(Br)c1)C1CC2Cn3c(nc4ccccc43)C2N1Cc1ccccc1 (stereo not drawn)
 : 7% | -13%
CCCCC(=O)N(C)c1c(CC)nc2c(OCCOC)cccn12
 : -9% | -7%
NC(Cc1ccc(Cl)cc1)c1csc(Nc2ccccn2)n1 (stereo not drawn)
 : -17% | -20%
N#Cc1cccc(NC(=O)c2cc(C3CCCCN3C(=O)c3ccccn3)on2)c1 (stereo not drawn)
 : -11% | ?
CC(=O)OC1CCC2(C)C(CCC3C2CC(OC(C)=O)C2(C)C3C[C@@H]3O[C@]4(CC[C@@H](C)CO4)[C@@H](C)C32)C1 (stereo partly drawn)
 : -1% | -15%
Cc1ccsc1CN(C)CC(=O)N(C)CC(=O)Nc1c(Cl)cccc1Cl
 : -12% | -1%
Cc1ccc(C(c2c(NC(=O)c3ccco3)sc(C)c2C)N2CCOCC2)cc1 (stereo not drawn)
 : 4% | -21%
OC[C@@H]1CN(Cc2ccc3c(c2)OCO3)C[C@H](n2cnc3c(NCc4ccncc4)ncnc32)O1
 : -13% | -14%
O=C(c1ccc(Cl)c(S(=O)(=O)N2CCCC2)c1)N1CCN(Cc2ccccc2)CC1
 : -2% | -7%
Cc1c(Cl)cnc(NC(=O)COC(=O)c2cccc(S(=O)(=O)N3CCOCC3)c2)c1Cl
 : -7% | -12%
COc1ccc(C2CC(=O)Nc3cc(OC)c(OC)cc32)cc1 (stereo not drawn)
 : -10% | -21%
CSc1ncnc2c1ncn2CCCN1CCN(C(=O)C2CC2)CC1
 : -18% | ?
COc1cccc(CNC(=O)[C@@H]2CCCN2C(=O)[C@@H]2CCCN2C(=O)c2cccc(Cl)c2)c1
 : 2% | -18%
CS(=O)(=O)N1CCCCC1c1cc(C(=O)NCc2ccc(Cl)c(Cl)c2)no1 (stereo not drawn)
 : 2%[18.4 µM] | -11%
Cc1ccc(N(CC(=O)NC(C)C)C(=O)CCC(=O)Nc2ccccn2)c(C)c1
 : -9% | 1%
CC1(C)CC(=O)C=C(c2cccs2)C1
 : 3% | -4%
COC(=O)c1ccc2nc(C3CCCCC3)c(CC(C)(C)C)n2c1
 : 7% | ?
COc1ccccc1CNc1nc(NCc2ccccc2F)c2sccc2n1
 : -1% | 28µM*
COc1ccccc1S(=O)(=O)N(C)C[C@H]1OCc2cnnn2CCCC(=O)N([C@H](C)CO)C[C@@H]1C
 : -8% | -3%
COc1ccc(-c2coc3c(C(=O)NCC4CCOCC4)cccc23)c(C)c1
 : 17% | ?
CC(C)[C@H](NC(=O)c1cccc(S(=O)(=O)N2CCOCC2)c1)C(=O)OCC(=O)Nc1cccc(Br)c1
 : 0% | -4%
NC(COCc1ccccc1)c1csc(Nc2ccc(C(=O)c3ccccc3)cc2)n1 (stereo not drawn)
 : 10% | -24%
CN(C(=O)c1cccc(NC(=O)Cc2ccc(NC(=O)C3CCCN(S(=O)(=O)c4cccc([N+](=O)[O-])c4)C3)cc2)c1)C1CCCCC1 (stereo not drawn)
 : 9% | 0%
CCCS(=O)(=O)NC(=O)C1(C)CCCN(C(=O)c2c(OC)cccc2OC)C1 (stereo not drawn)
 : 4% | -12%
COCCNC(=O)c1cccc2c(-c3cnn(C)c3)coc12
 : 16% | 4%
Cn1c(N)c(C(=O)N2CCN(c3ccccc3)CC2)c(=O)n(C)c1=O
 : 4% | -1%
C[C@@H]1CN([C@H](C)CO)C(=O)c2cc(Br)cnc2O[C@H]1CN(C)C(=O)CC1CC1
 : -15% | -20%
CC(=O)N1CCN(C(C(=O)Nc2c(C)cccc2C)c2ccccc2OC(F)(F)F)CC1 (stereo not drawn)
 : 3% | -8%
c1ccc2c(C(c3nnnn3-c3ccc4c(c3)OCCO4)N3CCCC3)ccnc2c1 (stereo not drawn)
 : -17% | -15%
CCc1nc2ccc(C(=O)NCCN3CCNC3=O)cn2c1N(CC)CCOC
 : 0% | -13%
COCCNc1nc(NCCOc2ccccc2Cl)c2sc(-c3ccccc3)cc2n1
 : -23% | -4%
Nc1[nH]c(C(=O)c2ccccc2)c(-c2ccccc2Br)c1C(=O)NCCc1ccc(Cl)cc1Cl
 : -2% | 9%
CCCS(=O)(=O)NC(=O)C1(C)CCN(C(=O)c2ccc(SC(F)(F)F)cc2)C1 (stereo not drawn)
 : 6% | -16%
COc1ccc(C(C)(NC(C)=O)c2nc(-c3ccccc3OC)cs2)cc1 (stereo not drawn)
 : -8% | -24%
COCCn1c(=S)[nH]c2cc(C(=O)N3CCN(C4CCCCC4)CC3)ccc2c1=O
 : -22% | -21%
CC(C)Oc1cc(F)ccc1-c1cc(C(=O)Nc2cccc(Cl)c2)[nH]n1
 : -19% | ?
COC(=O)C[C@H]1C[C@H]2c3cc(NS(=O)(=O)c4ccc(OC)cc4)ccc3O[C@H]2[C@H](CO)O1
 : -3% | 36%[activator]
CCCCn1nnnc1C(CCSC)N1CCN(C/C=C/c2ccccc2)CC1 (stereo not drawn)
 : -12% | -17%
COC(=O)[C@@]12C[C@@H](CC(=O)N3CCN(C(=O)C4CC4)CC3)C(=O)N(Cc3ccco3)C1=CCC(C)(C)C2
 : 5% | -18%
O=C1C=CC(=NN=C(c2ccccc2)c2ccccc2)C=C1
 : -9% | 3%
O=[N+]([O-])c1ccc(Cl)c([N+](=O)[O-])c1
 : ? | ?
COc1cc(OC)cc(C(=O)NCCc2ccc(OC)c(OC)c2)c1
 : 9% | -7%
CCCNC(=O)c1onc(CSc2ccc(F)c(F)c2)c1C(=O)NCCC
 : 5% | -28%
CC(C)(C)OC(=O)N1CCC(NC(=O)c2[nH]cnc2C(=O)Nc2ccccc2F)CC1
 : 2% | -24%
CCCCN(C(=O)C1CC(=O)N(CCc2ccc(OC)c(OC)c2)C1)c1c(N)n(CC(C)C)c(=O)[nH]c1=O (stereo not drawn)
 : -1% | -14%
OC[C@@H]1CN(Cc2ccc(Cl)cc2)C[C@H](n2cnc3c(NCc4ccc(F)cc4)ncnc32)O1
 : -9% | ?
COCCCNC(=O)c1ccc(-c2nc3ccccc3nc2-c2ccccc2)cc1
 : -18% | 33%[activator]
O=C(C=Cc1ccc2c(c1)OCO2)C1CC1
 : -26% | 46%[activator]

# An excerpt of these results, tab-delimited:
mol	RE007 growth inh	StopGo reporter
COC(=O)[C@@]12C[C@@H](CC(=O)N3CCN(C(=O)C4CC4)CC3)C(=O)N(Cc3ccco3)C1=CCC(C)(C)C2	5%	-18%
COCCCNC(=O)c1ccc(-c2nc3ccccc3nc2-c2ccccc2)cc1	-18%	33%[activator]
OC[C@@H]1CN(Cc2ccc(Cl)cc2)C[C@H](n2cnc3c(NCc4ccc(F)cc4)ncnc32)O1	-9%	?
CCCNC(=O)c1onc(CSc2ccc(F)c(F)c2)c1C(=O)NCCC	5%	-28%
CC(C)(C)OC(=O)N1CCC(NC(=O)c2[nH]cnc2C(=O)Nc2ccccc2F)CC1	2%	-24%

# Next results:
# Sequence of screens – RE007 growth inh | StopGo reporter
CN1OC[C@@H]2CN(C(=O)c3cccc4ccccc34)[C@H](c3ccccc3Br)C[C@@H]21
 : -9% | -20%
O=C(NC1CCCC1)c1ccc2c(c1)S(=O)(=O)c1ccccc1C2=O
 : -9% | 7%
C[C@@H]1CCCCO[C@@H](CN(C)S(=O)(=O)c2ccc(Cl)cc2)[C@@H](C)CN([C@H](C)CO)C(=O)c2cc(N(C)C)ccc2O1
 : -13% | -15%
COCCNc1nc(Oc2ccc(NC(C)=O)cc2)c2sc(-c3ccccc3)cc2n1
 : 5% | -18%
COc1ccc(C(C)=O)c(OCC(=O)NCCC2=CCCCC2)c1
 : -10% | ?
COc1ccc(CNC(=O)C2Cc3c(-c4ccccc4Oc4ccccc4)ccnc3O2)cc1OC (stereo not drawn)
 : -5%[18.4 µM] | ?
Cc1cc(C)n(-c2ccc(C(=O)N3CCN(S(=O)(=O)c4ccc(Br)cc4Cl)CC3)cc2)n1
 : 10% | ?
CCCc1c(-c2ccc(Cl)cc2)ncn1CCc1ccccc1OC
 : -22% | 28µM*
Cc1noc(C)c1-c1ccc(C(=O)NCC(C)C)c2occc12
 : 3% | 3%
O=S1(=O)CC(N2CCN(Cc3ccccc3F)CC2)CN1Cc1cn(Cc2cccc(C(F)(F)F)c2)nn1 (stereo not drawn)
 : -23% | ?
CCCCNC(=O)C1c2ccccc2OCC(=O)N1CC(F)(F)F (stereo not drawn)
 : 15% | 30%
NC(Cc1ccc(Cl)cc1)c1csc(Nc2ncccn2)n1 (stereo not drawn)
 : 2%[18.4 µM] | -18%
CCOC(=O)N1CCN(C(=O)C[C@@H]2C[C@@]3(C(=O)OC)CCCCC=C3N(Cc3ccc4c(c3)OCO4)C2=O)CC1
 : -22% | -11%
Cc1cc(Nc2ccc(C)c(C)c2)n2ncnc2n1
 : -8% | 3%
CCCCCCCCN1C(=O)[C@H](CC(=O)N2CCCCC2)C[C@@]2(C(=O)OCC)CCCC=C12
 : -8% | -22%
C[C@@H]1CN([C@@H](C)CO)C(=O)c2cc(C#Cc3ccccc3)cnc2O[C@@H]1CN(C)Cc1ccccn1
 : -5% | -9%
O=C1NCN(c2ccccc2)C12CCN(C(c1cccs1)c1nnnn1C1CCCC1)CC2 (stereo not drawn)
 : -9% | -9%
CC(=O)N1C[C@H]2CON(C)[C@H]2C[C@H]1c1ccc(-c2ccc(C#N)cc2)cc1
 : 11% | -24%
Cc1ccc(CN2CC(N3CCCCC3)CS2(=O)=O)cc1 (stereo not drawn)
 : -6% | -11%
CCC(C)(C)c1nnc(NC(=O)CCC2CCCCC2)s1
 : -4% | 4%
Cc1cccc(COC[C@H](Cc2ccccc2)N2CCN(C(=O)c3ccc(C(F)(F)F)cc3)CCC2=O)c1
 : -6% | -6%
CC(C)C[C@@H](CN1CCCC1CN1C(=S)NC[C@@H]1Cc1ccc(O)cc1)N1C[C@H](Cc2ccccc2)N(CC2CCCCCC2)C1=S (stereo partly drawn)
 : 4% | 0%
CSc1nc2nc(Cl)c(Cl)nc2[nH]1
 : -29% | 2%
C=C(CCO)C1=CCN(S(=O)(=O)C(C)(C)C)[C@H]1CCO
 : -16% | -25%
CCc1nc2c(OCc3ccc(F)c(F)c3)cccn2c1N(C)C(=O)c1cccs1
 : -8% | -23%
COc1ccc(OC)c(/C=N/n2c(C)nc3ccccc3c2=O)c1
 : 26% | ?
CC1(C)OC(=O)C2=C(C[C@@H](C3CCCCC3)O[C@@H]2c2ccc(Cl)cc2)O1
 : -3% | 0%
CN(CCCn1ccc(NC(=O)OCc2ccccc2)nc1=O)Cc1ccco1
 : -28% | -10%
c1ccc2[nH]c(CCCCCc3nc4ccccc4[nH]3)nc2c1
 : -12% | -7%
CCc1nc2ccc(C(=O)Nc3cccc(OCC(=O)N(C)C)c3)cn2c1N(C)C(=O)c1cccc(OC)c1
 : 3%[18.4 µM] | -15%
CC(=O)C(=Nc1cccc(Cl)c1)NNc1ccccc1C
 : 21% | 27%
O=C(Nc1ccc(Cl)cc1)C1Cc2c(-c3ccccc3)ccnc2O1 (stereo not drawn)
 : -20% | ?
CS(=O)(=O)c1ccc(C2=C(CNC(=O)c3nccs3)[C@H]3CC[C@@H](C2)N3Cc2ccccc2)cc1
 : -11% | -11%
CCOc1ccc2nc(S(=O)(=O)NC(=O)C3(C)CCN3C(=O)c3cccc(F)c3)sc2c1 (stereo not drawn)
 : 16% | -9%
Cc1ccc2nc(-c3ccccc3)c(CC3CCCCC3)n2c1
 : -1% | 16%
O=[N+]([O-])c1cc(-c2csc(NCCc3nc4cc(Cl)c(Cl)cc4n3CCCO)n2)ccc1Cl
 : -2% | ?
CCOC(=O)c1sc(NC(=O)CSc2nc(-c3ccco3)cc(C(F)(F)F)n2)c(C(=O)OCC)c1C
 : 9% | -21%
C[C@@H](c1ccccc1)N1C[C@@H](COCc2ccccc2)Oc2cc(N3CCC[C@H]3C(N)=O)ccc2S1(=O)=O
 : 0% | 2%
OC(c1ccccc1)c1nc(-c2cncnc2)cs1 (stereo not drawn)
 : 2%[18.4 µM] | -3%
CCOCc1nc2nc(Cl)c(Cl)nc2[nH]1
 : -6% | 0%
CC(C)Oc1cccc(NC(=O)C2(C)CCN2C(C)C)c1 (stereo not drawn)
 : 1%[18.4 µM] | -17%
COc1cccc(OC)c1OCCN1CCC(C(=O)NC(c2ccccc2)c2ncccc2C)CC1 (stereo not drawn)
 : -21% | -11%
COc1cc2oc3ccc(C#Cc4ccccn4)cc3c(=O)c2cc1OC
 : 4% | 11%
CCN(CC)C(=O)C1=C(C)N(CCC2=CCCCC2)C(=O)C(CC(=O)NCCCN(C)C)C1 (stereo not drawn)
 : -4% | -29%
O=C(CC1CC1)Nc1ccc2c(c1)[C@@H]1C[C@H](CC(=O)NC3CCCC3)O[C@@H](CO)[C@@H]1O2
 : 4% | -11%
CC(C)Nc1ncnc2c1ncn2[C@H]1CN(C2CCCC2)C[C@@H](CO)O1
 : 5% | -9%
CC(=O)OC1C=CN(C(C)=O)C(SC(C)(C)C)C1(C)O (stereo not drawn)
 : -9% | -19%
CCCNC(=O)c1cc(C2CCCN(S(=O)(=O)c3cccs3)C2)on1 (stereo not drawn)
 : 10% | -25%

# Only part of the results is shown; count on the stated rates, not on these rows.
